GIRK2 act: GIRK2 channel activation; AID 1259325; actives 0.05% (n = 63,000); HEK293-GIRK2 thallium flux, Thallos fluorescence; calls only for hits at 25 µM;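 active = among the strongest 0.2% of first-round signals and kept after retests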;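 note: first round at about 10 µM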
Target sequence (P48051 whole entry, looked up): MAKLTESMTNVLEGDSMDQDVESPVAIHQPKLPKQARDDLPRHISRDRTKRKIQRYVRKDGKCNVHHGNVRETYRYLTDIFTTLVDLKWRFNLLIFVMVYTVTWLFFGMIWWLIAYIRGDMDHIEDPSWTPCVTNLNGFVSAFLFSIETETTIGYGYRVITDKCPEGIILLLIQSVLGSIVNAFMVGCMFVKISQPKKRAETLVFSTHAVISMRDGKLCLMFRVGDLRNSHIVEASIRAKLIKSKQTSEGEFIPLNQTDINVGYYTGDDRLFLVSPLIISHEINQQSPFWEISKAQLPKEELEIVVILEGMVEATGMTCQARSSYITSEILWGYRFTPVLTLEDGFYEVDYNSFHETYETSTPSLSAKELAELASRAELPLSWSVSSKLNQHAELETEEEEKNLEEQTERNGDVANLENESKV
Calls only; i = inactive. Some of the compounds tested (hit frequency here may not be typical).

SMILES	GIRK2 act
COC(=O)CCn1c(=O)c2c(nc3n(-c4cc(OC)ccc4OC)c(C)cn23)n(C)c1=O	i
CSc1ccc(CNC(=O)CCn2cnc3c([nH]c4ccccc43)c2=O)cc1	i
COc1ccccc1NC(=O)Cn1nc(-c2cccs2)c2sc(N3CCOCC3)nc2c1=O	i
CSc1ccccc1CN1CCC(CNS(=O)(=O)c2ccc(Br)s2)CC1	i
O=C(COC(=O)c1cccnc1)Nc1ccc2c(c1)OCO2	i
Cc1noc(-c2ccc(NC(=O)/C=C/c3ccc4c(c3)OCO4)cc2)n1	i
CC(=O)c1ccc(S(=O)(=O)NCC2CCN(S(=O)(=O)c3cccnc3)CC2)cc1	i
Cc1cc(N2CCN(C(=O)Nc3cccs3)CC2)ncn1	i
O=P(O)(O)C(O)c1ccc2ccccc2c1 (configuration not stated)	i
COC(=O)C1CCN(c2ccc(Cl)nn2)CC1	i
Cn1c(=O)[nH]c(=O)c2c1nc(N1CCN(CC(N)=O)CC1)n2Cc1ccccc1F	i
Cn1c(=O)c2cc(C(=O)NCCCn3ccnc3)n(Cc3ccco3)c2n(C)c1=O	i
COc1cc(C[C@@H](CO)[C@H](CO)Cc2ccc(O)c(OC)c2)ccc1O	i
CCOc1ccccc1NC(=O)c1csc(Nc2ccc(S(C)(=O)=O)cc2)n1	i
COC(=O)c1ccc(NC(=O)C(=O)NCC(C)(O)CCSC)cc1 (configuration not stated)	i
CCCc1cnc2c(c1SCC(N)=O)c(=O)n(C)c(=O)n2C	i
Cn1cnc(S(=O)(=O)N2CCC3(CC2)OCCS3)c1	i
CCOc1ccccc1C(=O)NC1CC(=O)N(C2CC2)C1 (configuration not stated)	i
CS(=O)(=O)c1ccc2nc(N3CCN(C(=O)c4ccc([N+](=O)[O-])o4)CC3)sc2c1	i
CCCCOc1ccc(C(=O)N2CCC3(CC2)CC(=O)c2ccccc2O3)cc1	i
CSCCC(C)(O)CNC(=O)C(=O)Nc1ccccc1SC (configuration not stated)	i
COc1ccc(NC(=O)Cn2cc(S(=O)(=O)c3ccc(C)cc3)c(=O)c3ccccc32)cc1OC	i
CC(=O)N1CCN(c2oc(-c3ccc(COc4ccc(C)cc4)o3)nc2C#N)CC1	i
COc1ccc(NC(=O)CSc2nnc(C(C)C)c3cnn(-c4ccccc4)c23)c(OC)c1	i
COc1ccc2c(c1)c(=O)c(C(=O)c1ccc(C)c(C)c1)cn2CC(=O)Nc1ccc(Cl)cc1	i
CCOc1cc(NC(=O)c2ccc(=O)n(Cc3cccc(F)c3)n2)ncn1	i
CC(C)(C)c1ccc(NC(=O)NCC2CCN(C(=O)c3ccncc3)CC2)cc1	i
O=C(Nc1cccc(Br)c1)c1ccc(-n2ccnc2)nn1	i
CCNC(=O)NC12CC3CC(CC(C3)C1)C2	i
COc1ccc(-c2noc(-c3ccc(SCC(=O)N4CCCCC4C)nc3)n2)cc1 (configuration not stated)	i
N#C/C(C(=O)Nc1ccccc1)=C1/SC(Cc2ccccc2Cl)C(=O)N1c1ccc(F)cc1 (configuration not stated)	i
Cc1nnc(CNC(=O)c2cnn(-c3ccccc3)c2C)o1	i
COc1ccc(OC)c(/C=C2\Oc3c(ccc4c3CN(Cc3ccco3)CO4)C2=O)c1	i
O=C(CN1CCN(C(=O)CCc2ccccc2)CC1)c1cccs1	i
COc1cc(C)c(C)cc1S(=O)(=O)NCC1(c2cccs2)CCOCC1	i
Cc1cn([C@H]2C=C[C@@H](CO)O2)c(=O)[nH]c1=O	i
CCS(=O)(=O)NCCN1CCN(S(C)(=O)=O)CC1	i
COC(=O)c1cn(Cc2cc(F)cc(F)c2)nc1S(=O)(=O)N1CCCCC1	i
COc1ccc(Oc2coc3cc(OCC#N)ccc3c2=O)cc1	i
Cc1n[nH]c(C)c1S(=O)(=O)NCc1ccsc1	i

Given as a markdown table: 21 of the compounds above.
| compound | GIRK2 act |
| --- | --- |
| COC(=O)CCn1c(=O)c2c(nc3n(-c4cc(OC)ccc4OC)c(C)cn23)n(C)c1=O | i |
| CSc1ccc(CNC(=O)CCn2cnc3c([nH]c4ccccc43)c2=O)cc1 | i |
| COc1ccccc1NC(=O)Cn1nc(-c2cccs2)c2sc(N3CCOCC3)nc2c1=O | i |
| CSc1ccccc1CN1CCC(CNS(=O)(=O)c2ccc(Br)s2)CC1 | i |
| O=C(COC(=O)c1cccnc1)Nc1ccc2c(c1)OCO2 | i |
| Cc1noc(-c2ccc(NC(=O)/C=C/c3ccc4c(c3)OCO4)cc2)n1 | i |
| CC(=O)c1ccc(S(=O)(=O)NCC2CCN(S(=O)(=O)c3cccnc3)CC2)cc1 | i |
| Cc1cc(N2CCN(C(=O)Nc3cccs3)CC2)ncn1 | i |
| O=P(O)(O)C(O)c1ccc2ccccc2c1 (configuration not stated) | i |
| COC(=O)C1CCN(c2ccc(Cl)nn2)CC1 | i |
| Cn1c(=O)[nH]c(=O)c2c1nc(N1CCN(CC(N)=O)CC1)n2Cc1ccccc1F | i |
| Cn1c(=O)c2cc(C(=O)NCCCn3ccnc3)n(Cc3ccco3)c2n(C)c1=O | i |
| COc1cc(C[C@@H](CO)[C@H](CO)Cc2ccc(O)c(OC)c2)ccc1O | i |
| CCOc1ccccc1NC(=O)c1csc(Nc2ccc(S(C)(=O)=O)cc2)n1 | i |
| COC(=O)c1ccc(NC(=O)C(=O)NCC(C)(O)CCSC)cc1 (configuration not stated) | i |
| CCCc1cnc2c(c1SCC(N)=O)c(=O)n(C)c(=O)n2C | i |
| Cn1cnc(S(=O)(=O)N2CCC3(CC2)OCCS3)c1 | i |
| CCOc1ccccc1C(=O)NC1CC(=O)N(C2CC2)C1 (configuration not stated) | i |
| CS(=O)(=O)c1ccc2nc(N3CCN(C(=O)c4ccc([N+](=O)[O-])o4)CC3)sc2c1 | i |
| CCCCOc1ccc(C(=O)N2CCC3(CC2)CC(=O)c2ccccc2O3)cc1 | i |
| CSCCC(C)(O)CNC(=O)C(=O)Nc1ccccc1SC (configuration not stated) | i |

Going on with the list:
SMILES	GIRK2 act
COc1cccc(Oc2nccn3c(=O)n(CC(=O)Nc4cc(C)ccc4C)nc23)c1	i
CCOC(=O)c1oc2cc(O)ccc2c(=O)c1-c1ccc2c(c1)OCCO2	i
O=C(CC1CSc2nc3c(c(=O)n21)CCC3)Nc1cc(-n2cccn2)ncn1 (configuration not stated)	i
Cc1cccc(Cl)c1Nc1ccccc1CC(=O)O	i
Cc1ccc(NC(=O)c2c(O)c3sccc3n(C)c2=O)cc1C	i
Cc1ccc(-c2ccc3nnc(CCC(=O)N4CCN(c5cccc(Cl)c5)CC4)n3n2)cc1C	i
Cc1c(C)c(C)c(S(=O)(=O)N2CCC3(CC2)OCCS3)c(C)c1C	i
O=c1c2cc(-c3ccccc3)nn2cnn1Cc1cccc(C(F)(F)F)c1	i
CCOC(=O)CN1CCC(c2nn(C)c(=O)n2C2CCCC2)CC1	i
O=S(=O)(C1CC1)N1CCC2(CC1)OCCS2	i
CCOC(=O)c1cccc(NC(=O)c2nnn(-c3ccccc3F)c2-c2ccccn2)c1	i
O=C(O)CCC(=O)Nc1nc2c(s1)CCCC2	i
O=C(Nc1cnc(-n2ccnc2)nc1)c1ccccn1	i
COC(=O)c1ccccc1-n1c(=O)c2ccccc2n(Cc2nc(-c3ccccc3)no2)c1=O	i
CCOC(=O)C(C)Oc1ccc2c(=O)c(Oc3ccccc3OCC)coc2c1 (configuration not stated)	i
Cc1nc(-c2ccco2)sc1CNS(=O)(=O)c1cc(C(F)(F)F)ccc1Cl	i
CCOc1ccc(-c2ccc(OCCNC(=O)c3ccc(S(=O)(=O)N(C)C)cc3)nn2)cc1	i
CNC(=O)CSc1ncc(-c2ccc(OC)cc2)n1-c1cccc(C(F)(F)F)c1	i
O=C(CN1CCC(c2nc(-c3cccs3)no2)CC1)Nc1ccc(F)c(Cl)c1	i
CCCCc1ccc(NC(=O)c2cc(=O)c(OCc3ccc(F)cc3)c[nH]2)cc1	i
CCOC(=O)Cn1cc(-c2nc(-c3cnccn3)no2)ccc1=O	i
Cc1cc(NC(=O)CSc2nnc(N3CCN(C(=O)CCc4ccccc4)CC3)s2)no1	i
Cc1noc(C)c1CN1CCN(C(=O)c2ccc(F)cc2Cl)CC1	i
Cc1cc(Cl)ccc1OCCCC(=O)NO	i
Cc1cnc2c(c1NCCC1=CCCCC1)c(=O)n(C)c(=O)n2C	i
CC1CC(C)CN(C(c2ccc(F)cc2)c2sc3ncnn3c2O)C1 (configuration not stated)	i
COCCCNC(=O)C(=O)Nc1cc(C)nc2ccccc12	i
CCc1cccc2c3c([nH]c12)C(CC)(CC(=O)NCc1ccc(C(F)(F)F)cc1)OCC3 (configuration not stated)	i
CC(C)(C)c1csc(CN2CCN(C(=O)c3cccc4ccccc34)CC2)n1	i
CCOC(=O)c1ccc(NC(=O)Cn2c(C)cc(C)c(S(=O)(=O)c3ccccc3)c2=O)cc1	i
COc1cccc(N2CC(C)Cn3c2nc2c3c(=O)n(CC(C)=O)c(=O)n2C)c1 (configuration not stated)	i
OC(CNC1CCCCC1)COc1ccc(-c2nnco2)cc1 (configuration not stated)	i
CCCCCCCn1c(C)cn2c3c(=O)n(C)c(=O)n(C)c3nc12	i
O=C(O)Cc1cn(Cc2ccc(Br)cc2)c2ccccc12	i
Cc1ccc(C)c2sc(NC(=O)CN3C(=O)c4ccccc4C3=O)nc12	i
CCCCCn1c(SCC#N)nc2cc(C(=O)NCc3ccccc3Cl)ccc2c1=O	i
O=C(COc1ccccc1)Nc1ccc2c(c1)CCCN2S(=O)(=O)c1ccccc1	i
O=C(O)c1cccc(C(=O)CCC2OC(n3cnc4c(=O)[nH]cnc43)C(O)C2O)c1 (configuration not stated)	i
O=C(Cc1ccc(F)cc1)N1CCc2cc(S(=O)(=O)N3CCOCC3)ccc21	i
Cc1cc(C)cc(NC(=O)C(=O)NCCc2ccc3c(c2)CCCN3C)c1	i
Cc1[nH]c2nc3c(c(=O)n(Cc4ccc(Cl)c(Cl)c4)c(=O)n3C)n2c1C	i
COc1ccc(Oc2cnc(N)nc2-c2ccc(OCc3ccccc3)cc2O)cc1	i
CCNC(=O)C1CCCN(c2nc3ncn(CC(=O)Nc4ccc(Cl)cc4)c(=O)c3s2)C1 (configuration not stated)	i
Cc1ccc(S(=O)(=O)NCCN2CCOCC2)cc1C	i
Cc1cccc(NC(=O)CCCS(=O)(=O)Cc2ccccc2)n1	i
COC(=O)c1ccc(C(=O)N(CC2CCCO2)c2nc3c(C)ccc(C)c3s2)cc1 (configuration not stated)	i
Cc1cc(C(O)CCNC(=O)C(=O)Nc2ccc(OC(F)(F)F)cc2)c(C)o1 (configuration not stated)	i
O=C(C(=O)N1CCC(Oc2ccc(Cl)cn2)CC1)c1c[nH]c2ccccc12	i
Cc1ccc(Cn2cc(C(=O)NNC(=O)NCc3ccc(F)cc3)ccc2=O)cc1	i
CC1CCN(c2cc(-c3nccn3CC(=O)NCc3ccccc3Cl)ccn2)CC1	i

(continued)
SMILES	GIRK2 act
COc1ccc(NC(=O)Cn2cccc(S(=O)(=O)N3CCCCCC3)c2=O)cc1OC	i
COc1ccc(NC(=O)Cn2cccc(-c3nc(-c4ccc(OC)c(OC)c4)no3)c2=O)c(OC)c1	i
O=C(c1cc(-c2cccs2)[nH]n1)N1CCC(Oc2ccc(C(F)(F)F)cn2)CC1	i
O=C(Nc1nc(CCC(=O)N2CCCC2)cs1)NC1CCCCC1	i
COc1ccc(-c2noc(-c3nn(-c4ccccc4)ccc3=O)n2)cc1	i
N#Cc1nc(-c2ccc(S(=O)(=O)N3CCCCC3)cc2)oc1NCc1ccc2c(c1)OCO2	i
CCc1ccc(-n2c(C)cn3c4c(=O)n(CC(N)=O)c(=O)n(C)c4nc23)cc1	i
COc1ccc(S(=O)(=O)NCCO)cc1N(C)S(=O)(=O)c1ccc(C)cc1	i
O=C(Cc1cccs1)NCC(O)C1CCCCC1 (configuration not stated)	i
COc1ccc(NC(=O)C(c2ccccc2)n2cccc2)cc1Cl (configuration not stated)	i
CN1CCC(N(C)C(=O)c2cc3c(-c4ccccc4)nn(-c4ccccc4)c3s2)CC1	i
Cc1ccc(Cl)cc1NC(=O)Cn1cnc2c(sc3cccc(F)c32)c1=O	i
CCSc1nnc(NC(=O)CCC2NC(=O)c3ccccc3NC2=O)s1 (configuration not stated)	i
COc1cccc2cc(C(=O)Nc3ccccc3F)/c(=N\NS(=O)(=O)c3ccccc3)oc12	i
COc1cccc2cc(C(=O)NC(C)(C)C(C)(C)C)c(=O)oc12	i
COCCc1nnc(NC(=O)c2ccc(F)c(F)c2)o1	i
N#CCc1nc(-c2ccco2)cs1	i
O=C(NCCC1CCCCN1S(=O)(=O)c1cccs1)c1ccsc1 (configuration not stated)	i
Cc1ccccc1NC(=O)CSc1nccn1-c1ccc(C(=O)NCc2ccccc2F)cc1	i
O=C1CC(C(=O)Nc2ccc(Cl)cn2)c2ccccc21 (configuration not stated)	i
CCCNC(=O)C(=O)NCCc1ccc2c(c1)CCCN2CC	i
CCCCN1CC(c2nc3ccccc3n2CCOc2ccc(C)cc2C)CC1=O (configuration not stated)	i
CCOC(=O)N1CCC(NC(=O)c2csc(-c3cc4ccccc4[nH]3)n2)CC1	i
Cc1cc(C)n(CCNC(=O)C2COCC(=O)N2Cc2cccs2)n1 (configuration not stated)	i
COc1ccc(S(=O)(=O)N2CCCc3cc(NS(=O)(=O)c4ccc(F)cc4F)ccc32)cc1	i
COc1ccc(F)cc1S(=O)(=O)Nc1ccc2c(c1)N(C(=O)C1CC1)CCC2	i
O=S(=O)(c1cccn2cnnc12)N(Cc1cccc(Cl)c1)c1cc(F)cc(F)c1	i
COc1ccc(-n2cc(C(=O)OCc3cccnc3)c3ccccc3c2=O)cc1	i
Cc1ccc(Cl)cc1NC(=O)CCc1c(C)nn(-c2nc(C)c(C)c(=O)[nH]2)c1C	i
COCC(C)(O)CNC(=O)c1ccc(OC(F)(F)F)cc1 (configuration not stated)	i
Cc1cc(S(=O)(=O)N2CCC(Oc3ccc(C#N)cn3)CC2)c(Cl)cc1Cl	i
Cc1nc(C)c(C(=O)N2CCCC(c3nnc(-c4ccc5c(c4)OCO5)o3)C2)s1 (configuration not stated)	i
Cc1ccc(-n2ncc3c(=O)n(CC(=O)N4CCN(c5ccccc5)CC4)cnc32)c(C)c1	i
COc1ccc(CCNC(=O)Cn2c(=O)oc3ccc(Cl)cc32)cc1	i
COc1ccc(-c2noc(CSc3nc4cc5c(cc4c(=O)n3C)OCO5)n2)c(OC)c1	i
COC(=O)Nc1nc2ccc(S(=O)(=O)c3ccc(NC(=O)Nc4cc(C(F)(F)F)ccc4F)cc3)cc2[nH]1	i

Screening data (PubChem BioAssay)
